Bioassay records as filed in PubChem BioAssay.
2A Renilla – lowers the Renilla signal of an FMDV 2A StopGo reporter. Potency, µM (titrated, usually from 57.5 µM), without a hit: at the highest dose signal change, negative = less light. HEK cells with a luciferase reporter of 2A StopGo recoding. AID 1745857. hit rate 0.32% among 120,000; active means well fitted falling curve with a large enough effect; inconclusive means small, poorly fitted or top-dose-only effect; inactive means no such curve, though single readings can be large or run the other way; note: nearly all actives have a fitted effect of over 55% in size; overnight with compound
2A firefly – lowers the firefly signal of an FMDV 2A StopGo reporter. HEK cells with a luciferase reporter of 2A StopGo recoding. Potency, µM (series often up to 57.5 µM), for inactives: top-dose signal change, negative = less light. hit rate 0.23% among 120,000. AID 1745856; active = well fitted falling curve with a large enough effect; inconclusive = small, poorly fitted or top-dose-only effect; inactive = no such curve, though single readings can be large or run the other way; note: nearly all actives have a fitted effect of over 60% in size; overnight with compound
The depositor's hits bear a star; ? = inconclusive; & = joins results of further samples; [ ] = another dose, or the depositor's remark. % is set by controls: 0 for no effect and ±100 for the full control effect; potency is the fitted concentration of half-maximal effect.

Each structure is followed by: 2A Renilla, 2A firefly
COc1ccccc1CN1CCC(CNC(=O)c2cnn(-c3ccc(C)c(C)c3)c2C2CCN(C(=O)OC(C)(C)C)CC2)CC1
    -13.7%, -3.7%
CCC(Oc1ccccc1)C(=O)N1CCN(Cc2cc(=O)n3nc(-c4cccc(C)c4)sc3n2)CC1 (stereo not given)
    -23.9%, -3.8%
O=c1c2oc3ccccc3c2n(Cc2cccc(Cl)c2)c(=O)n1Cc1ccc2c(c1)OCO2
    -2.9%, -5.9%
CCOc1ccccc1NC(=O)c1sc2nc(-c3ccc(OC)cc3)ccc2c1N
    -16.7%, 97.5%[activator]
Cc1ccc(CCNC(=O)c2cccn2-c2nnc(N3CCCCC3)s2)cc1
    80.9%[activator], 8.4%
COc1ccc(NC(=O)Cn2cc(C(=O)c3cccs3)c3ccccc32)cc1
    -4.9%, -19.7%
O=C(CCc1ncc(-c2ccccc2Cl)o1)N1CCN(S(=O)(=O)c2ccccc2)CC1
    6.3%, -5.0%
COc1ccc2oc(=O)c(-c3nc(-c4ccccc4Cl)no3)cc2c1
    13.9%, 176.5%[activator]
CCCC(=O)Nc1cccc(NC(=O)c2cccc3c(Br)cccc23)c1
    -4.8%, 1.8%
CC(C)OC(=O)c1cc(NS(=O)(=O)c2ccc3ccccc3c2)cc(C(=O)OC(C)C)c1
    -0.6%, -2.6%
OCCC#CCN1CCCCC1
    -1.5%, -4.1%
CC(=O)Nc1ccc(NC(=O)COC(=O)c2cc(=O)[nH]c3ccccc23)cc1
    9.0%, -6.6%
CCCNC(=O)COCc1cc(-c2ccc3c(c2)OCO3)on1
    118.0%[activator], 146.0%[activator]
CC(NCc1ccccn1)C12CC3CC(CC(C3)C1)C2 (stereo not given)
    -6.6%, -9.5%
O=C(CCc1c[nH]c2ccccc12)NC1CCN(C2CC2)CC1
    -12.6%, 0.7%
COc1ccc(-n2c(=O)c3ccccc3n(Cc3ccc(F)cc3Cl)c2=O)cc1OC
    2.4%, 2.3%
CN(C)c1cccc(C(=O)N2CCC(c3c[nH]c4ccccc34)(c3c[nH]c4ccccc34)CC2)c1
    -1.8%, 39.2%[activator]
COc1cc(OC)cc(C(=O)Nc2cc3c(cc2N2CCCCC2)n(C)c(=O)n3C)c1
    -9.8%, -17.3%
CCNS(=O)(=O)c1cccc(C(=O)OCc2nc3ccccc3nc2C)c1
    8.5%, 6.6%
Oc1cn2c(n1)Nc1ccc(Cl)c(Cl)c1C2
    -3.6%[23.8 µM], -6.3%[27 µM]
Cc1cccc(N2CCN(c3nc4ccc(C(=O)c5ccccc5)cc4n4cnnc34)CC2C)c1 (stereo not given)
    -12.4%, -22.2%
COC(=O)c1sc(NC(=O)/C=C/c2ccc(OC)c(OC)c2)c(C(=O)OC)c1C
    -10.2%, -12.6%
O=C(NCCc1cccnc1)c1ccccc1F
    11.0%, 0.0%
CCONC(=O)C(C)Oc1cccc(C)c1C (stereo not given)
    -2.8%, -8.2%
Clc1cccc(-c2csc(NC3CC3)n2)c1
    -7.0%, 193.8%[activator]
CCOCCCNC(=O)COc1ccc2c(=O)c(-c3ccc(Cl)cc3)c(C)oc2c1
    ?, -27.1%
O=S1(=O)c2ccc(Br)cc2OC[C@@H](Cc2ccccc2)N1Cc1cn(Cc2ccc(F)cc2)nn1
    44.6%[activator], 27.1%
CCc1ccc2oc(-c3cc(NC(=O)c4cccs4)ccc3Cl)nc2c1
    5.2%, 128.6%[activator]
COc1ccc(Cl)cc1NC(=O)N1CC(=O)Nc2sc3c(c2C1c1ccccc1)CCCC3 (stereo not given)
    65.9%[activator], 12.2%
CCN1CCN(c2oc(/C=C/c3ccc(OC)c(OC)c3)nc2C#N)CC1
    46.2%&19.0%[activator], 27.9%&-9.1%
CN(Cc1ccccc1)C(=O)NC1CCCC(C(F)(F)F)C1 (stereo not given)
    40.8%, 27.2%
CCc1ccccc1NC(=O)CN1CCCN(Cc2cc(C)ccc2C)S1(=O)=O
    ?, ?
CC(=O)N[C@@H](Cc1c[nH]c2ccccc12)C(=O)N1CCC(C)CC1
    16.1%, 11.8%
Cc1ccc(C(=O)Nc2nc3ccc(S(=O)(=O)N(C)C)cc3s2)cc1C
    49.7%[activator], 28.2%
COc1ccc(C(=O)Nc2nnc(S(=O)(=O)N3CCN(c4ccc(F)cc4)CC3)s2)cc1
    -8.2%, -6.0%
O=C(NCCc1ccccc1)C(=O)NCC(c1ccco1)S(=O)(=O)c1ccccc1 (stereo not given)
    2.3%, -12.6%
COc1cccc(N2CCN(C(=O)c3cc4c(=O)n(Cc5cccnc5)ccc4nc3C)CC2)c1
    28.9%, 25.2%
Cc1ccc(-c2cc(=O)c3ccc4ccccc4c3o2)cc1
    -8.7%, 0.0%
CC(=O)Oc1ccc2c(C)c(CC(=O)Nc3ccc4c(c3)OCCO4)c(=O)oc2c1
    -4.2%, 9.5%
COc1ccccc1/C=N\O
    -11.0%, -2.9%
N#Cc1ccccc1NC(=O)C(=O)NCC(c1ccc2c(c1)OCO2)N1CCOCC1 (stereo not given)
    -14.5%, -20.4%
O=C(C1CCCN(S(=O)(=O)c2cccc3nsnc23)C1)N1CCN(c2ccccc2Cl)CC1 (stereo not given)
    -8.3%, -32.0%
N#Cc1cc(C(=O)c2cc(Cl)ccc2O)cn(C2CCCCC2)c1=O
    -9.4%, ?
CCC1CN(C(=O)Nc2cc(Cl)c(OC)cc2OC)c2ccccc2O1 (stereo not given)
    -10.9%, ?
Cc1cc2cc(NS(=O)(=O)c3ccccc3)ccc2[nH]1
    73.8%[activator], 56.0%[activator]
Cc1ccc(-c2cc(C(=O)NCCNC(=O)c3ccco3)c3ccccc3n2)c(C)c1
    36.1%[activator], 24.8%
CCOC(=O)c1cc(=O)c2c(OCC(COc3cccc4oc(C(=O)OCC)cc(=O)c34)OC(=O)[C@@H](N)CCCCN)cccc2o1
    -10.1%, -1.8%[11.5 µM]
CCCN(CCC)C(=O)CSc1c2c(nc3ccc(Cl)cc13)CCCC2
    1.9%, -9.5%
CCc1ccc(S(=O)(=O)c2cn(CC)c3cc(N4CCCCC4)c(F)cc3c2=O)cc1
    -1.8%, -14.1%
CC(NC(=O)c1ccc2c(c1)NC(=O)CS2)c1ccc2c(c1)OCCO2 (stereo not given)
    27.6%, 7.8%

The results go on.
Each structure is followed by: 2A Renilla, 2A firefly
CCC(NC(=O)C1CCN(C(=O)c2cccc3ccccc23)CC1)c1ccc(Cl)cc1 (stereo not given)
    30.3%[activator], -12.3%
CCN(c1ccccc1C)S(=O)(=O)c1nnc(NC(=O)c2ccc(OC)c(OC)c2)s1
    37.2%[activator], -8.2%
COc1cc(-c2nc3ccccn3c2Nc2ccc3c(c2)OCO3)cc(OC)c1O
    134.0%[activator], 138.5%[activator]
COc1cc(/C=C(/C#N)c2ccc(Cl)cc2)cc(Cl)c1OCc1ccccc1C#N
    13.2%, 12.9%
CCOc1ccc(N(CC)S(=O)(=O)N2CCCC(C(=O)NCc3ccc(Cl)cc3)C2)cc1 (stereo not given)
    -4.8%, ?
CC1(C)O[C@H]2[C@@H](O1)[C@@H](C(=O)Nc1cc(F)ccc1F)O[C@@H]1OC(C)(C)O[C@@H]12
    -8.3%, 31.2%[activator]
CCOC(=O)C1CCC(CN(Cc2c(Cl)cccc2Cl)S(=O)(=O)c2ccc(Cl)cc2)CC1 (stereo not given)
    32.0%[activator], -9.7%
Cc1cc(C)c2oc(C(=O)Nc3sc4c(c3C(=O)NCc3ccco3)CCC4)cc(=O)c2c1
    -5.9%, -16.9%
CCOc1ccc2nc(NC(=O)c3nc(SCC)ncc3Cl)sc2c1
    -13.1%, -4.3%
Cc1ccc(NC(=O)CN2CCN(C(=O)CN(C)Cc3cnn(-c4ccccc4)c3)CC2)cc1
    -10.4%, 2.7%

Taken from the results shown, 3 compounds:
Each structure is followed by: 2A Renilla, 2A firefly
CCC(NC(=O)C1CCN(C(=O)c2cccc3ccccc23)CC1)c1ccc(Cl)cc1 (stereo not given)
    30.3%[activator], -12.3%
CCN(c1ccccc1C)S(=O)(=O)c1nnc(NC(=O)c2ccc(OC)c(OC)c2)s1
    37.2%[activator], -8.2%
COc1cc(-c2nc3ccccn3c2Nc2ccc3c(c2)OCO3)cc(OC)c1O
    134.0%[activator], 138.5%[activator]

(more compounds)
Each structure is followed by: 2A Renilla, 2A firefly
Cc1ccccc1OCc1ccc(-c2nc(C#N)c(NC3CC3)o2)o1
    -3.0%, 18.4%
O=C1CC(c2c(F)cccc2Cl)c2c(c3ccccc3oc2=O)O1 (stereo not given)
    -12.5%, -17.0%
CCOc1ccc2c(c1)c(=O)c(C(=O)c1ccc3c(c1)OCO3)cn2Cc1cccc(F)c1
    26.7%, -21.3%
O=C(Nc1ccc(Cl)cc1)Nc1ccc(Cc2ccncc2)cc1
    ?, ?
Cc1ccc(NC(=O)Cn2c(=O)nc(-c3ccccc3F)c3cc(Cl)ccc32)c(Br)c1
    -12.3%, -15.6%
Clc1ccccc1-c1csc(NC2CC2)n1
    17.6%, 19.1%
Cc1cc2c(cc1S(=O)(=O)Nc1cccc(Cl)c1C)OCCN2C
    -4.6%, -14.0%
Cn1nc(C(=O)OC2CCCCC2=O)c2ccccc2c1=O (stereo not given)
    -8.1%, -12.0%
O=C(O)CCS(=O)(=O)Nc1ccccc1
    9.6%, -2.1%
COCCCNC(=O)c1ccc2c(=O)n(Cc3ccc(OC)cc3)c(=O)[nH]c2c1
    -5.2%, -8.8%
CCC(NC(=O)CCc1ccsc1)c1ccccc1OC (stereo not given)
    12.6%, 3.4%
Cc1ccc(OCC(=O)Nc2nonc2-c2ccc(Br)cc2)cc1C
    -4.9%, 3.9%
COc1ccc(-c2cc(C(=O)Nc3ccc4c(c3)OCO4)no2)cc1OC
    -0.6%, 7.1%
CC12CC3CC(C)(C1)CC(C(=O)NC(C)(C)CO)(C3)C2
    1.8%, -5.1%
COc1ccc(-c2nnc(SCC(=O)Nc3cc(OC)cc(OC)c3)[nH]c2=O)cc1
    -11.2%, 72.6%[activator]
CC(C)c1nc2ccc(C(=O)NCCCN3CCN(c4cccc(Cl)c4)CC3)cc2o1
    2.0%, ?
COc1ccc2c(c1)c1c(c(=O)n(-c3cccc(C)c3)c(=O)n1CC(=O)NCc1ccc(C)cc1)n2C
    -7.7%, -9.5%
Cc1cccc(CNC(C)CN2CCCCC2)c1 (stereo not given)
    -16.6%, -7.6%
CCC(C(=O)Nc1sccc1C#N)c1ccccc1 (stereo not given)
    -3.5%, 13.9%
Cc1cc(S(=O)(=O)Nc2c(NC3CCCC3)c3ccccc3oc2=O)ccc1F
    18.6%, -2.2%
O=C(COc1ccc(OCc2ccccc2)cc1)OCC(=O)c1cc2ccccc2o1
    2.5%, -31.1%
Cc1ccc2oc(C(=O)N3CCC(c4nc5ccccc5o4)CC3)c(C)c2c1
    5.3%, 24.6%
CCOc1ccc(NC(=O)Cn2c(=O)n(Cc3ccco3)c(=O)c3oc4ccccc4c32)cc1
    -4.5%, -3.3%
Cc1ccc(NC(=O)NCc2c(C)nn(C)c2C)c(C)c1
    -2.3%, 29.0%
Cc1ccc(S(=O)(=O)N2CCN(Cc3ccccc3Cl)CC2)cc1
    -6.9%, -3.4%
CC(=O)c1ccc(SCC(=O)Nc2ccc(N3CCCC3=O)c(C)c2)c(F)c1
    -13.3%, -5.3%
COc1ccc(-c2ccn[nH]2)cc1
    4.3%, 150.7%[activator]
Cc1ccc(CN(C)C(=O)CSc2nc3ccccc3o2)o1
    ?, ?
CCc1ccccc1NC(=O)Cn1c(=O)n(-c2ccc(CC(=O)NC3CC3)cc2)c(=O)c2ccccc21
    -3.9%, 5.5%
COc1cc(C(=O)N2CCN(C3CCCCC3)CC2)cc(OC)c1OC
    -6.9%, 5.8%
Cc1cccc(Cc2cnc(NC(=O)c3nn(C)c(=O)c4ccccc34)s2)c1
    11.8%, 0.0%
O=C(CSc1nc2ccccc2nc1Cc1ccc(Cl)cc1)N1CCN(c2ccccc2)CC1
    -10.4%, -20.0%
CC1(C)C(c2ccccc2)[N+](=O)C(c2ccccc2)=C(c2ccccc2)N1[O-] (stereo not given)
    23.8%, 11.4%
CN(C)CC(NS(=O)(=O)c1ccccc1F)c1ccccc1 (stereo not given)
    -11.1%, -10.6%
Cc1ccc2cc(C)c(Nc3cccc(C)c3C)nc2c1
    1.2%, 13.0%
Cc1ccc(C2C(C#N)=C(SCC(=O)Nc3cccc(C)c3C)NC3=C2C(=O)CCC3)o1 (stereo not given)
    49.1%[activator], -11.5%
CC(NC(=O)c1ccc2c(c1)NC(=O)CCS2)c1ccncc1 (stereo not given)
    -6.8%, -9.7%
CN(C)C(=O)Oc1ccc2c(=O)c(-c3ccccc3)c(C(F)(F)F)oc2c1
    12.0%, 124.5%[activator]
CCNC(=O)Cc1ccc(S(=O)(=O)N2CCCCC2)cc1
    14.3%, 18.9%
O=C(Nc1cc(-c2cccc(F)c2)no1)c1noc2c1COc1ccccc1-2
    -16.1%, 3.0%
Cc1cccc(N2CCN(C3(c4ccccc4)C(=O)c4ccccc4C3=O)CC2)c1C
    -11.8%, -19.5%
CC(=O)N1CCN(C(C(=O)O)c2c[nH]c3ccc(NC(=O)C(C)C)cc23)CC1 (stereo not given)
    5.7%, 4.5%
CC1=C(c2ccc(C(C)C)cc2)S(=O)(=O)NC1=NCc1ccc(Cl)cc1
    29.4%, -19.4%
Cn1c(C(=O)N2CCN(C(=O)c3ccccc3F)CC2)cc2ccccc21
    -16.5%, -24.0%

Reprinted at random: 2 entries already listed
Each structure is followed by: 2A Renilla, 2A firefly
CC(=O)N1CCN(C(C(=O)O)c2c[nH]c3ccc(NC(=O)C(C)C)cc23)CC1 (stereo not given)
    5.7%, 4.5%
CC1=C(c2ccc(C(C)C)cc2)S(=O)(=O)NC1=NCc1ccc(Cl)cc1
    29.4%, -19.4%

Compounds as they come. About 0.53% of those tested had a hit in this group.
